Source: PubChem (National Center for Advancing Translational Sciences (NCATS))
NS1 inh = qHTS Assay for Inhibitors of Influenza NS1 Protein Function; S. cerevisiae slowed by influenza A NS1, growth recovery by OD600; Potency, µM (highest dose often 46.1 µM), for the others: at the top dose activity, positive = more growth; 270,000 compounds, 0.4% hits; AID 2326, 2010; active means well fitted rising curve with a large enough effect; inconclusive means small, poorly fitted or top-dose-only effect; inactive means no such curve, though single readings can be large or run the other way; further: nearly all actives have a fitted effect of over 50% in size
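A cell-based growth assay was used: compounds that relieve NS1-induced slow growth of budding yeast raise OD600. Assay medium was yeast nitrogen base with ammonium sulphate and -URA supplement, pH 6.0, with 2% galactose.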
Cruzain noTriton = qHTS Assay for Promiscuous and Specific Inhibitors of Cruzain (without detergent) | 200,000 compounds, 2.3% hits | Potency, µM, for inactives: max response, negative = inhibition, actives largely listed as inhibitors | Cruzipain (Trypanosoma cruzi), P25779 | AID 1476, 2009 | purified cruzain, Z-FR-AMC fluorescence, no detergent;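 further: plate controls were enzyme without inhibitor for no effect and buffer without enzyme for full effect; nearly all actives have a fitted effect of over 40% in size; top concentration of the series not given in the record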
Target sequence (P25779 123-467 limits assumed): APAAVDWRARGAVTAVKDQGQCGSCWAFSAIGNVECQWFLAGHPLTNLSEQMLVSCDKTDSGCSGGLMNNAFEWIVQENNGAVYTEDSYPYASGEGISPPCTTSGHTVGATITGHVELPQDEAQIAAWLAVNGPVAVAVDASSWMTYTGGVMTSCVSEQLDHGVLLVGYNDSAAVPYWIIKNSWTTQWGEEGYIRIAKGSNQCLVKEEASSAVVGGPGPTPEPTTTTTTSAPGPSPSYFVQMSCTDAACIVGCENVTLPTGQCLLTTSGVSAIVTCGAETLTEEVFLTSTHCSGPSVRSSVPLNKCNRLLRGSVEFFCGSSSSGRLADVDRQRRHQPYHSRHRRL
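Purified cruzain at 1.5 nM, pre-incubated 15 min with compound at room temperature in 100 mM sodium acetate pH 5.5, 5 mM DTT, 0.00005% Triton X-100. Reaction started with 2 uM Z-FR-AMC; AMC fluorescence increase over 60 s gives rate.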
2A StopGo = High Throughput Screening for Foot and Mouth Disease Virus Antivirals. human cells with a luciferase reporter of 2A StopGo recoding; control for the full effect not named in the record. Potency, µM (series often up to 57.9 µM), for inactives: at the highest dose signal change, negative = less light. 410,000 compounds, 1.2% hits. AID 1159524, 2015; active = well fitted falling curve with a large enough effect; inconclusive = small, poorly fitted or top-dose-only effect; inactive = no such curve, though single readings can be large or run the other way; tested in HEK293T cells; further: on the % scale 0 is the no-effect control and ±100 the full control effect; nearly all actives have a fitted effect of over 45% in size; luciferase light after 4 h
Cruzain inh Det = qHTS Assay for Promiscuous and Specific Inhibitors of Cruzain (with detergent). Potency, µM, without a hit: max response, negative = inhibition, actives largely listed as inhibitors. 200,000 compounds, 0.43% hits. purified cruzain, Z-FR-AMC fluorescence, 0.01% Triton. Cruzipain (Trypanosoma cruzi), P25779;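 further: plate controls were neutral wells for no effect and buffer without enzyme for full effect; nearly all actives have a fitted effect of over 40% in size; top concentration of the series not given in the record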
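Detergent-containing arm of a paired screen for aggregation-based inhibition: 0.01% Triton X-100 present. Cruzain at 1.5 nM cleaved 2 uM Z-FR-AMC at pH 5.5 with 5 mM DTT; AMC fluorescence gain over 60 s measured activity.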
MARV entry inh = qHTS for inhibitors of binding or entry into cells for Marburg Virus. 300,000 compounds, 1.8% hits. Potency, µM (top dose mostly 37.8 µM), inactives show at the top dose activity change, negative = inhibition, hits mostly inhibitors. AID 540276, 2011. Marburg virus pseudotyped entry inhibition, cell reporter; control for the full effect not named in the record; about a third of the inactives were read at about 46 µM; active = well fitted inhibition curve with a large enough effect; inconclusive = small, poorly fitted or top-dose-only effect, or effect the other way; inactive = flat fitted curve, though single readings scatter; tested in HEK293 cells; about a fifth of its hits are not listed in these tables; further: on the % scale 0 is the no-effect control and ±100 the full control effect; luciferase read-out
SARS PLpro yeast = qHTS of Yeast-based Assay for SARS-CoV PLP; S. cerevisiae expressing SARS-CoV PLpro, growth rescue; control for the full effect not named in the record; Potency, µM (top dose mostly 32.9 µM), for the others: at the top dose activity, positive = growth rescue; 330,000 compounds, 0.19% hits; active means well fitted rising curve with a large enough effect; inconclusive means small, poorly fitted or top-dose-only effect; inactive means no such curve, though single readings can be large or run the other way; further: 0% is about no effect; nearly all actives have a fitted effect of over 55% in size; growth read by luminescence after 48 h
LASV entry inh = qHTS for Inhibitors of binding or entry into cells for Lassa Virus; Lassa virus pseudotype entry inhibition, cell reporter; control for the full effect not named in the record; Potency, µM (titrated, usually from 37.9 µM), for the others: at the top dose activity change, negative = inhibition, hits mostly inhibitors; 300,000 compounds, 1.2% hits; active means well fitted inhibition curve with a large enough effect; inconclusive means small, poorly fitted or top-dose-only effect, or effect the other way; inactive means flat fitted curve, though single readings scatter; tested in HEK293 cells; further: on the % scale 0 is the no-effect control and ±100 the full control effect; nearly all actives have a fitted effect of over 50% in size; luciferase read-out
RE007 growth inh = qHTS Assay for Inhibitors of the HIV-1 protein Vpr. S. pombe RE007 Vpr strain, BacTiter-Glo ATP luminescence, 24 h; control for the full effect not named in the record. Potency, µM (highest dose often 92.2 µM), for inactives: at the highest dose activity change, negative = less growth. 360,000 compounds, 0.21% hits; active = well fitted falling curve with a large enough effect; inconclusive = small, poorly fitted or top-dose-only effect; inactive = no such curve, though single readings can be large or run the other way;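 further: on the % scale 0 is the no-effect control and ±100 the full control effect; nearly all actives have a fitted effect of over 50% in size; the assay follows cell death caused by Vpr and the record does not say whether a fall means rescue or toxicity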
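Fission yeast strain RE007, carrying one chromosomally integrated HIV-1 vpr copy, was seeded at OD 0.01 in PMG+AL medium with 23 nL pinned compound. After 24 h at 30 °C and 99% humidity, viability was read by BacTiter-Glo luminescence.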
An asterisk follows results filed as active; ? = inconclusive; . = not tested or not shown; & = joins results of further samples; [ ] = dose if it differs, or a comment. Unless noted, the call rests on the fitted dose curve; in most records, active means well fitted curve in the direction sought with a large enough effect; inconclusive means small, poorly fitted or top-dose-only effect, or another doubt; inactive means no such curve, though single readings can be large; an effect the other way counts as inactive or inconclusive. Potency means the concentration at half of the fitted maximal effect.

1) CCCn1nc(C(=O)Nc2nc3ccccc3[nH]2)c2ccccc2c1=O
2) O=[N+]([O-])c1ccc(Sc2nnnn2-c2ccccc2)c(Cl)c1
3) N#Cc1c2c(c(N3CCN(c4ccccn4)CC3)n3c1nc1ccccc13)CCC2
4) CCN(CC)c1ccc(NS(=O)(=O)c2cc(-c3cc(C)no3)ccc2C)c(C)c1
5) O=C(O)c1ccc(OC(F)(F)C(F)C(F)(F)F)cc1 (stereo not drawn)
6) O=C(NC1CCCc2ccccc21)c1ccc2c(c1)sc1nc(-c3ccc(F)cc3)cn12 (stereo not drawn)
7) COc1ccc(N2CCN(C(c3cc4cc(C)ccc4[nH]c3=O)c3nnnn3Cc3ccccc3)CC2)cc1 (stereo not drawn)
8) Cc1cc2cc(CN(C(=O)C3CC3)C3CCCC3)c3nnnn3c2cc1C
assay / entry	1	2	3	4	5	6	7	8
NS1 inh	10%	-20%	7%	.	-114%	.	8%	-31%
Cruzain noTriton	1%	-4%	0%	?	-1%	-7%	-27%	?
2A StopGo	-25%	?	.	-14%	-11%	13%	-3%	-17%
Cruzain inh Det	-4.8%	1.5%	0.9%	3.0%	0.2%	0.8%	-3.0%	-0.3%
MARV entry inh	-21%	-26%	.	.	17%[46.1 µM]	.	?	?
SARS PLpro yeast	-4%	-28%	2%	.	-6%	.	13%	-3%
LASV entry inh	13%[46.1 µM]	-3%	.	?	5%	0%[46.1 µM]	?	?
RE007 growth inh	-2%	-10%	.	.	-7%	.	3%	1%

Arranged by SMILES length (high to low): part of the list above.
7) COc1ccc(N2CCN(C(c3cc4cc(C)ccc4[nH]c3=O)c3nnnn3Cc3ccccc3)CC2)cc1 (stereo not drawn)
8) Cc1cc2cc(CN(C(=O)C3CC3)C3CCCC3)c3nnnn3c2cc1C
2) O=[N+]([O-])c1ccc(Sc2nnnn2-c2ccccc2)c(Cl)c1
assay / entry	7	8	2
NS1 inh	8%	-31%	-20%
Cruzain noTriton	-27%	?	-4%
2A StopGo	-3%	-17%	?
Cruzain inh Det	-3.0%	-0.3%	1.5%
MARV entry inh	?	?	-26%
SARS PLpro yeast	13%	-3%	-28%
LASV entry inh	?	?	-3%
RE007 growth inh	3%	1%	-10%

(continued)
9) O=C(NCc1ccccn1)[C@@H]1C[C@H]1[C@@H](NP(=O)(c1ccccc1)c1ccccc1)c1ccccc1
10) Cc1ccc(NS(=O)(=O)c2ccc(NS(=O)(=O)c3cccs3)cc2)cc1
11) CCc1ccccc1NC(=O)C1CCN(C(=O)c2cccs2)CC1
12) CCCS(=O)(=O)N1CCN(C(=O)COc2ccc(-c3ccccc3)cc2)CC1
13) CCN(CC)c1ccc(/C=C2/C(=O)NC(=O)N(Cc3ccco3)C2=O)cc1
14) O=S(=O)(N/N=C/c1ccc2c(c1)OCCO2)c1ccc(Cl)cc1
15) Cc1ccc(-n2nnc(-c3cccnc3Cl)n2)cc1
16) CC(=O)OCN(C#N)c1nc(N(C)C)nc(N(C)C)n1
assay / entry	9	10	11	12	13	14	15	16
NS1 inh	2%	2%	-3%	-2%	-19%	-15%	-5%	-12%
Cruzain noTriton	-1%&0%	9%	.	2%	-7%	-10%	.	-5%
2A StopGo	11%	43%[activator]	-7%	-22%	0%	55%[activator]	16%	-15%
Cruzain inh Det	-0.6%&2.1%	-11%	.	-4.1%	-2.0%	-8.7%	.	-6.7%
MARV entry inh	-16%	-9%	0%[46.1 µM]	-10%	-17%	-7%	.	-8%
SARS PLpro yeast	-7%	-4%	2%	7%	11%	-4%	-2%	-1%
LASV entry inh	6.5µM*	-11%	3%	2%	-25%	9%	.	7%
RE007 growth inh	-24%	0%	43%	6%	-1%	-7%	-10%	-4%

17) O=C(CN1C(=O)NC2NC(=O)NC21)NN=C1CCCC1 (stereo not drawn)
18) Cc1ccccc1OCC(=O)Nc1ccccc1CO
19) COc1cc(C(C#N)N2CCCCC2)ccc1O (stereo not drawn)
20) O=C(CSc1nc2ccccc2[nH]1)Nc1ccc(F)c(F)c1
21) COC(=O)c1c(NC(=O)C2CCCCC2)sc2c1CCN(C(C)C)C2
22) CC1(C)c2ssc(=S)c2-c2ccccc2N1C(=O)c1ccco1
23) CC(C)CN(C(=O)COC(=O)c1ccc(-c2ccccc2)cc1)C1CCS(=O)(=O)C1 (stereo not drawn)
24) Cc1ccc(Oc2ncccc2C(=O)NCC(=O)O)cc1
assay / entry	17	18	19	20	21	22	23	24
NS1 inh	6%	-17%	-4%	7%	-1%	7%	.	3%
Cruzain noTriton	12%	5%	0%	25µM*	.	?	.	.
2A StopGo	-1%	3%	-3%	.	?	?	-11%	-6%
Cruzain inh Det	-3.4%	-2.4%	0.9%	-29%	.	-4.2%	.	.
MARV entry inh	3%	?	?	0%	.	-53%	13%	14%
SARS PLpro yeast	5%	12%	9%	.	0%	-4%	-3%	1%
LASV entry inh	-3%	2%	0%	-6%	.	2%	-2%	9%
RE007 growth inh	3%	-16%	8%	13%	-2%	-11%	-2%	3%

Limited to NS1 inh and Cruzain noTriton (2 entries from above):
| cpd | Compound | NS1 inh | Cruzain noTriton |
| --- | --- | --- | --- |
| 18 | Cc1ccccc1OCC(=O)Nc1ccccc1CO | -17% | 5% |
| 19 | COc1cc(C(C#N)N2CCCCC2)ccc1O (stereo not drawn) | -4% | 0% |

(list continues)
25) O=C(Cc1ccccc1)Nc1ccc(NC(=O)c2ccco2)nc1
26) CCc1sc(C(=O)NC(C)C2CCCO2)cc1Br (stereo not drawn)
27) Cc1cn2c(=O)cc(COC(=O)c3cccc(NC(=O)C(C)Oc4ccccc4)c3)nc2s1 (stereo not drawn)
28) O=C(CN1CCSC1=O)N1CCN(S(=O)(=O)c2ccc(F)cc2)CC1
29) CC(C)CN1CCN(Cc2cccc3nccnc23)CC1CCO (stereo not drawn)
30) CCOC(=O)c1[nH]c2ccc(Br)cc2c1NC(=O)CCN1CCCC(C)C1 (stereo not drawn)
31) O=C(NCCCN1CCOCC1)c1ccc2c(c1)N(Cc1c(F)cccc1Cl)C(=O)c1ccccc1S2
32) COc1ccc(OC)c(NC(=O)c2csnn2)c1
assay / entry	25	26	27	28	29	30	31	32
NS1 inh	-1%	-2%	.	.	5%	-3%	-3%	.
Cruzain noTriton	3%	.	0%	.	.	2%	.	-22%
2A StopGo	69%[activator]	1%	6%	-23%	7%	.	?	-3%
Cruzain inh Det	2.9%	.	-0.3%	.	.	-3.0%	.	-4.1%
MARV entry inh	-25%[46.1 µM]	.	.	18%	-4%[46.1 µM]	?	.	11%[46.1 µM]
SARS PLpro yeast	3%	-3%	.	0%	0%	11%	1%	.
LASV entry inh	?	.	-2%[46.1 µM]	13%	0%	0%	.	1%[46.1 µM]
RE007 growth inh	37%	14%	.	4%	-11%	.	-10%	.

33) Cc1ccccc1NC(=O)c1ccc(Cl)c(NC(=O)c2ccncc2)c1
34) O=c1[nH]c2cc3c(cc2cc1CN(CCc1ccccc1)Cc1nnnn1CC1CCCO1)OCO3 (stereo not drawn)
35) O=C(Cn1c(=O)n2nc(-c3ccccc3)nc2c2ccccc21)Nc1ccccc1C(F)(F)F
36) CCC(=O)NC(Cc1ccccc1)c1ccc2c(c1)OCCCO2 (stereo not drawn)
37) Cc1ccc2c(c1)NC(=O)C(CC(=O)Nc1cc(Cl)ccc1C)O2 (stereo not drawn)
38) CCn1c(=O)c(-[n+]2ccccc2)c(O)c2ccccc21
39) CCCc1cc(=O)[nH]c(SCC(=O)N(CC(C)C)C2CCS(=O)(=O)C2)n1 (stereo not drawn)
40) CCOC(=O)c1c(C)[nH]c(C)c1S(=O)(=O)NCCCc1ccco1
assay / entry	33	34	35	36	37	38	39	40
NS1 inh	5%	-4%	.	-17%	.	3%	-5%	2%
Cruzain noTriton	-8%	16%	-1%	8%	4%	-1%	11%	.
2A StopGo	-25%	-7%	4%	17%	0%	-6%	2%	39%[activator]
Cruzain inh Det	-4.4%	-8.2%	0.9%	0.0%	0.1%	2.7%	3.0%	.
MARV entry inh	-14%	-7%	?	4%	1%[46.1 µM]	21%[46.1 µM]	-9%	.
SARS PLpro yeast	8%	2%	.	2%	.	3%	5%	-6%
LASV entry inh	-1%	?	7%[46.1 µM]	1%	.	10%	0%	.
RE007 growth inh	13%	0%	.	19%	.	-2%	3%	1%

41) Cc1cccc(N2CCN(C(=O)Cc3ccc(Br)cc3)CC2)c1C
42) CN(C)S(=O)(=O)c1cccc(NC(=O)/C=C/c2ccccc2[N+](=O)[O-])c1
43) CC(=O)Nc1sc2c(c1C#N)CC(C)(C)NC2(C)C
44) CCOC(=O)c1cc(-c2ccccc2)n(CC(=O)Nc2ccc(OC)cc2OC)c1C
45) C[N+](C)(C)CC(O)CC(=O)O (stereo not drawn)
assay / entry	41	42	43	44	45
NS1 inh	-9%	.	6%	.	.
Cruzain noTriton	-3%	.	7%	-2%	8%
2A StopGo	-18%	0%	-12%	-12%	-20%
Cruzain inh Det	-1.7%	.	3.8%	0.5%	6.5%
MARV entry inh	-29%	-3%[46.1 µM]	-1%	.	.
SARS PLpro yeast	.	0%	2%	.	.
LASV entry inh	?	14%	-2%	-18%[46.1 µM]	.
RE007 growth inh	6%	-3%	0%	.	-5%[18.4 µM]
